# TAR Tat displ – HIV-1 TAR-Tat binding disruption; z-score (test concentration not listed); AID 1259389; 0.6% of 100,000 active; HIV-1 TAR RNA, Tat peptide displacement FRET; hits give high values;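 also: score is relative to mean and SD of negative controls; some compounds called inactive have numbers as strong as hits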
# CDC25B-CDK2 inh – human CDC25B-CDK2/CyclinA binding inhibition; AID 1259370; z-score (concentration not given with the values); 0.72% of 94,000 active; P30305+P24941; HTRF CDC25B-CDK2/CyclinA binding, anti-His/anti-Flag; hits give high values;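 also: score is relative to mean and SD of negative controls; strong numbers were not always called active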
# * marks the source's active call; other numbers are inactive results; · = no result given.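 The calls were made as follows: active = z-score from 3 up in half or more of its runs; inactive = the rest.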
compound | TAR Tat displ | CDC25B-CDK2 inh
O=C(O)CCN(CCC(=O)O)c1nnc(-c2ccccc2)o1 | · | 0.32
CCOc1ccc(S(=O)(=O)NCc2ccco2)c2ccccc12 | 0.65 | -0.76
O=C(CSc1ccc2nnc(-c3cccc(F)c3)n2n1)Nc1nc2ccccc2s1 | · | -11
N#CC1=C(N)Oc2ccc3ccccc3c2C1c1ccc(F)cc1 (centres undefined) | 1.3 | -1.6
O=c1c2c(-c3ccc(Cl)cc3)noc2ncn1Cc1ccccc1 | 1.2 | ·
O=C(c1ccco1)n1ccc(-c2cccs2)n1 | · | -1.9
CCCS(=O)(=O)c1nc(S(=O)(=O)c2ccc(C)cc2)c(NCC)s1 | 0.24 | 0.59
Oc1c(Cl)cc(Cl)c2cccnc12 | 0.93 | ·
CCCSc1nc2c(c(=O)[nH]1)C(c1ccc(F)cc1)C(C(=O)OCC)=C(C)N2 (centres undefined) | 1.4 | -1.4
O=C(CN1CCSc2ccccc21)NCCCN1CCCC1=O | 0.21 | ·
NC(=O)c1c(NC(=O)c2ccc(S(=O)(=O)N3CCCC3)cc2)sc2c1CCCC2 | 0.62 | -0.58
O=c1c2ccccc2nc2ccc(N3CCOCC3)nn12 | 0.38 | -0.39
COc1ccc(N2C(=O)CC(Sc3ncn[nH]3)C2=O)c(OC)c1 (centres undefined) | 1.1 | -2
c1ccc(CN(Cc2ccccc2)c2c3c(nc4ncnn24)CCC3)cc1 | · | -1.4
Cc1c(C(=O)N2CCCCC2)c(S(=O)(=O)NCCC2=CCCCC2)c(C)n1C | 1.4 | ·
COc1ccc(-c2nnc(SCC(=O)Oc3ccccc3Cl)o2)cc1OC | 0.78 | -0.25
O=C(O)CCCc1ccc2ccc3cccc4ccc1c2c34 | · | -0.57
Fc1ccc(C(Nc2ccc(F)c(F)c2)c2nnc(-c3ccccc3)o2)cc1 (centres undefined) | 0.63 | ·
CC1=CCC2C(=O)N(c3ccc(C(=O)OCC(=O)c4ccc(Cl)cc4)cc3)C(=O)C2C1 (centres undefined) | -0.32 | 0.25
Cc1cccc(C)c1OC(=O)CSc1nnc(-c2ccc3c(c2)OCO3)o1 | 2.1 | -2.9
Cc1oc2cc3oc(=O)ccc3cc2c1-c1ccccc1 | · | -2.8
Cc1ccc(C)n1-c1ncccc1O | · | -3.8
CCOc1ccc(NS(=O)(=O)c2ccc(CN3C(=O)c4cccnc4C3=O)s2)cc1 | 0.28 | ·
Cc1cc(C)cc(NS(=O)(=O)c2ccc3c(c2)CC(C)N3C(=O)C2CCC2)c1 (centres undefined) | -1.9 | ·
Cc1ccc(C2CC(=O)Nc3c2ccc2ccccc32)cc1Br (centres undefined) | 10 | -1.1
CCCNc1nc(Nc2ccccc2)c2cnn(C)c2n1 | 0.74 | ·
COc1ccc(-c2ccc(-c3noc(C)n3)c(OC)n2)cc1 | 0.13 | 1.9
Brc1ccc2ncnc(Nc3ccccc3)c2c1 | · | -0.53
O=c1[nH]c(/C=C/c2cn(Cc3ccccc3)c3ccccc23)nc2ccccc12 | -0.05 | 0.39
CCOc1ccc(-c2nc(C#N)c(NCCOC)o2)cc1 | 0.92 | -0.27
Cc1cc2nc(CN3CCCc4ccccc43)cc(=O)n2o1 | -1.7 | ·
CCn1ncc(Br)c1C(=O)Nc1ccc(N(C)C)cc1 | -0.88 | -3
Fc1ccc(-c2noc3ncnc(NCCCN4CCOCC4)c23)cc1 | 0.17 | ·
CCOC(=O)N1CCN(c2c(NC3CCCC(C)C3C)c(=O)c2=O)CC1 (centres undefined) | 2.2 | -1.9
O=C1CN(Cc2ccccc2)S(=O)(=O)c2ccccc2N1Cc1ccc(Cl)cc1 | 0.78 | ·
O=C(NC1CCCC1)c1ccc2noc(-c3ccc(Cl)cc3)c2c1 | 2.2 | -3.1

# By substructure, the entries above with a carbonyl joined to an NH by a bond outside any ring (five)
compound | TAR Tat displ | CDC25B-CDK2 inh
O=C(CSc1ccc2nnc(-c3cccc(F)c3)n2n1)Nc1nc2ccccc2s1 | · | -11
O=C(CN1CCSc2ccccc21)NCCCN1CCCC1=O | 0.21 | ·
NC(=O)c1c(NC(=O)c2ccc(S(=O)(=O)N3CCCC3)cc2)sc2c1CCCC2 | 0.62 | -0.58
CCn1ncc(Br)c1C(=O)Nc1ccc(N(C)C)cc1 | -0.88 | -3
O=C(NC1CCCC1)c1ccc2noc(-c3ccc(Cl)cc3)c2c1 | 2.2 | -3.1

# (cont.)
compound | TAR Tat displ | CDC25B-CDK2 inh
O=C1CC(c2cc(F)ccc2F)c2c(nc(SCc3cccc(Cl)c3)[nH]c2=O)N1 (centres undefined) | 3 | -1.3
COC(=O)C1CCN(S(=O)(=O)c2cc3c4c(c2)CC(=O)N4CCC3)CC1 | 1.1 | ·
CCN1CCCC1CNC(=O)CCCn1c2ccccc2c2cnn(C)c(=O)c21 (centres undefined) | 0.37 | -1
CC(C)C(NS(=O)(=O)c1ccccc1)C(=O)O (centres undefined) | · | -0.28
O=C(COc1ccccc1Cl)N(Cc1ccco1)c1ccccn1 | 1.4 | -0.43
Cn1c(N)c(C(C[N+](=O)[O-])c2ccco2)c(=O)n(C)c1=O (centres undefined) | · | -2
CCOc1ccc2ccc(OCC)c(/C=c3\sc4nc5ccccc5n4c3=O)c2c1 | · | -0.59
Cn1c(N2C(=O)CC(Cc3ccc(Cl)cc3)C2=O)nc2ccccc21 (centres undefined) | -0.57 | 0.91
N#Cc1ccc(CN=C(N)N=C(N)N)cc1 | · | -1.7
COc1n[nH]c(C(=O)Nc2ccccc2F)c1[N+](=O)[O-] | -0.25 | -1.6
COc1ccc(O)c(C2=NN3C(C2)c2cccc(OC)c2OC3c2ccc(OC)c(OC)c2)c1 (centres undefined) | 1.4 | -0.6
Cc1ccc(-c2nc(N)n(C(=O)C(C)C)n2)cc1 | -0.09 | 0.22
O=C(Cn1c(=O)oc2ccccc21)Nc1nnc(SCC(=O)N2CCOCC2)s1 | 0.81 | -1.1
COc1cc(NC(=O)/C=C/c2ccccc2Cl)c(OC)cc1Cl | · | -0.78
Cc1ccc(=O)n(Cc2ccc([N+](=O)[O-])cc2)n1 | · | -0.77
Cc1cc(C)cc(NC(=O)c2cc3c(oc2=O)CC(C)(C)CC3=O)c1 | 0.02 | -3
N#Cc1cn(Cc2ccccc2)nn1 | 0.46 | -0.28
CC1=C(C(=O)OCC2CCCO2)C(c2coc3ccccc3c2=O)C2=C(CCCC2=O)N1 (centres undefined) | 1.2 | -0.69
Cc1ccc(NCc2nc3ccccc3n2C)c(C)c1 | · | -0.47
CCn1nc(C)c(CCNC(=O)Nc2ccc3c(c2)OCO3)c1C | 2.3 | ·
CN(C)C=NC(=S)c1ccc(-c2cccs2)s1 | · | -2.4
O=C(CSc1nc2ccccc2c(=O)n1CC1COc2ccccc2O1)NC1CCCCC1 (centres undefined) | · | -2.8
O=C(NCCCN1CCCC1=O)C1CCCN1c1nnc(N2CCCC2=O)s1 (centres undefined) | 1.4 | -2.2
Clc1cccc(-n2ncnc2-c2cccc(Br)c2)c1 | 1.6 | 0.89
Cn1c(CNc2ccccc2)cc(=O)n(C)c1=O | -0.44 | -2.4
N#Cc1c(SCC(=O)O)nc(N2CCCCC2)c2c1CCCC2 | · | -2.1
Oc1ccc2c(c1)C1CCCC1(N1CCOCC1)O2 (centres undefined) | · | 0.77
CN1C(=O)c2ccccc2Sc2ccc(NC(=O)N3CCC(C(N)=O)CC3)cc21 | -0.35 | -1.5
CCOCCn1c(CN2CCCCC2)nc2c1c(=O)n(C)c(=O)n2C | · | -1.1
CCN1C(=O)C2(c3ccccc31)c1c(oc3cc(C)c(C)cc3c1=O)C(=O)N2CC1CCCO1 (centres undefined) | 1.7 | -1
CCCCN1C(=O)NS(=O)(=O)c2ccccc21 | 0.07 | ·
CCOC(=O)N1CCc2c(sc3c2C(=O)NC(c2ccc(-c4ccc(Cl)cc4)o2)N3)C1 (centres undefined) | 0.45 | -2.1
CCN(CC)c1ccc(Nc2nc3ccccc3n3nnnc23)c(C)c1 | -2.1 | -1.8
Cc1nc(N2CCCC2)c2c(C(=O)Nc3ccccc3F)c(C)oc2n1 | 1.9 | ·
C=C(C)CC1N(c2ccccc2)C(=O)C2C(C(=O)O)C3C=CC21O3 (centres undefined) | 0.74 | 0.26
CCOC(=O)c1sc2nc(C)nc(Oc3cccc(OC)c3)c2c1C | 1.9 | ·
COC(=O)c1ccccc1N1C(=O)C2C3c4ccccc4C(C(C)=O)(c4ccccc43)C2C1=O (centres undefined) | · | -1.8
CC(C)c1ccc(Nc2ncnc3c2cnn3C)cc1 | 0.79 | ·
COC(=O)C[C@H]1C(C)(C)C2(O)OC34CC2C(=O)[C@]1(C)C3CC[C@]1(C)C4=CC(=O)O[C@H]1c1ccoc1 (some centres undefined) | 3.2 | ·
NC[C@H]1O[C@H](OC2[C@@H](N)C[C@@H](N)[C@H](O[C@H]3O[C@H](CO)[C@@H](O)[C@H](N)[C@H]3O)[C@H]2O)[C@H](O)[C@@H](O)[C@@H]1O (some centres undefined) | 0.79 | ·
O=S1(=O)CC2N=C(N(Cc3c(F)cccc3Cl)c3ccccc3)SC2C1 (centres undefined) | 1.4 | -2.2
O=C(CCS(=O)(=O)c1ccc2c(c1)NC(=O)CS2)Nc1nccs1 | -9.2 | ·
Cc1ccc(C(CNC(=O)c2cc(=O)c3cc(Cl)c(C)cc3o2)N(C)C)o1 (centres undefined) | -0.58 | -1.2
CCOC(=O)CSc1nc2c(c(C3CC=CCC3)c1C#N)CCC2 (centres undefined) | · | -0.76
CCC1CCCCN1CCNS(=O)(=O)c1cc(Br)cc2c1N(C(=O)C1CC1)CC2 (centres undefined) | 0.77 | 1.4
COc1cc(NS(=O)(=O)c2ccc3c(c2)CC(C)N3C(C)=O)cc(OC)c1 (centres undefined) | -0.48 | ·
CCc1ccc(N2C(=O)C3NN=C(C(=O)OCc4ccccc4)C3C2=O)cc1 (centres undefined) | 0.35 | -0.48
FC(F)(F)c1ccc(-c2nc(=S)[nH][nH]2)cc1 | · | -2.7
CC1CCN(c2ccc3nnc(CCC(=O)NCCN4CCN(C)CC4)n3n2)CC1 | -0.9 | ·
O=C(NC1CCS(=O)(=O)C1)c1cc(=O)c2ccccc2o1 (centres undefined) | 0.75 | 1.3
CCCCCSc1nc(C)c(CC(=O)O)c(=O)[nH]1 | 2.8 | -1.1
Nc1nc2ccccc2n1CCN1CCCCC1 | -1.5 | -1.1
O=C1CC(c2nc3ccccc3n2Cc2ccc(F)cc2)CN1c1ccccc1F (centres undefined) | -0.53 | -1.8
COc1ccccc1C1CC(c2ccc(Br)cc2)=NN1C(=O)CCC(=O)O (centres undefined) | 0.02 | -1.5
O=C1c2nccnc2C(=O)N1c1ccc(F)cc1Cl | -0.64 | -1
COc1ccc(C2=NS(=O)(=O)N(C)C(C(=O)N3CCOCC3)=C2)cc1 | 0.91 | -0.47
O=C1COc2cc(S(=O)(=O)Nc3ccc(F)c(Cl)c3)c(Cl)cc2N1 | 0.56 | ·
CCOc1ccc(C2C(C(=O)OC3CCCC3)=C(C)NC3=C2C(=O)C(C(=O)OC)C(C)C3)cc1OC (centres undefined) | -0.2 | -0.74
CC(C)CC1NC(=O)N(Cc2ccc([N+](=O)[O-])cc2)C1=O (centres undefined) | · | -2.2
CCc1ccc(-c2cn3ncsc3n2)cc1 | 0.25 | -1.4

# Remaining list, next part:
compound | TAR Tat displ | CDC25B-CDK2 inh
CCc1ccc(-c2cc(C)no2)cc1S(=O)(=O)Nc1ccc2c(c1)OCO2 | 0.37 | ·
CCCNc1nc2c(c(=O)n(C)c(=O)n2C)n1CCC(C)C | · | -1.2
COc1nc(C)ccc1-c1noc(-c2ccccc2)n1 | 0.01 | 0.26
Cc1sc2ncn(CC(=O)O)c(=O)c2c1S(=O)(=O)N1CCOCC1 | 1.9 | -0.58
COc1ccc(NC(=O)CC2SC3=NCCN3C2=O)cc1 (centres undefined) | · | 0.18
CC1=C(C(=O)Nc2cc(C)ccn2)C(c2ccc(C)cc2)C2=C(CCCC2=O)N1 (centres undefined) | -0.42 | -1.3
CC(C)(C)NC1=NCCNC12CCN(S(=O)(=O)c1ccccc1)CC2 | -0.8 | ·
COC(=O)C1=CC(C(=O)c2cccs2)=NN(c2ccccc2)C1C(=O)OC (centres undefined) | · | 0.88
Cc1cc(C)nc(NS(=O)(=O)c2ccc(NC(=O)c3ccccc3C)cc2)n1 | · | -1.2
COc1ccc(-c2cn3nc(SCC(=O)N4CCc5ccccc54)ccc3n2)cc1 | 0.5 | ·
Cc1ccc(-c2ccc(=O)[nH]n2)cc1S(=O)(=O)N(C)c1ccc(Br)cc1 | 1.6 | -3.7
CC1(C)CC(=O)C2=C(C1)Nc1cc3c(cc1C2c1ccc(Br)cc1)OCO3 (centres undefined) | 1.4 | 0.75

# An excerpt of these results, as labelled records:
COC(=O)C1=CC(C(=O)c2cccs2)=NN(c2ccccc2)C1C(=O)OC (centres undefined)
  TAR Tat displ = ·
  CDC25B-CDK2 inh = 0.88

COc1ccc(-c2cn3nc(SCC(=O)N4CCc5ccccc54)ccc3n2)cc1
  TAR Tat displ = 0.5
  CDC25B-CDK2 inh = ·

# Next part.
compound | TAR Tat displ | CDC25B-CDK2 inh
CC1CCN(Cc2nc3c(c(=O)n(C)c(=O)n3C)n2CCCO)CC1 | · | -0.11
COC(=O)Cn1nc(-c2ccc(C)c(S(=O)(=O)N3CCCC3)c2)ccc1=O | 1.9 | -0.47
COc1ccc(N2NC(=O)C(C)(C)C2=O)cc1 | 2.3 | -1
O=C1N=c2ccc(Br)cc2=C1c1sc(NS(=O)(=O)Cc2ccccc2)nc1O | · | -3.9
Cc1cccc(-c2nnn3c2nc(NCCc2ccc(S(N)(=O)=O)cc2)c2ccccc23)c1 | -0.25 | -1.9
O=C(Nc1ccc(Br)cc1)N1CCC2(CC1)Nc1cc(F)ccc1-n1cccc12 | 0.22 | ·
O=C1CC(=O)N(c2ccc(F)cc2)N1 | 1.2 | -1.2

# Record cards (already shown):
# CC1CCN(Cc2nc3c(c(=O)n(C)c(=O)n3C)n2CCCO)CC1 as listed: TAR Tat displ = ·; CDC25B-CDK2 inh = -0.11
# O=C1N=c2ccc(Br)cc2=C1c1sc(NS(=O)(=O)Cc2ccccc2)nc1O as listed: TAR Tat displ = ·; CDC25B-CDK2 inh = -3.9

# From PubChem
